Screening results as filed in PubChem.
MT1-MMP act inh = blocks activation of human MT1-MMP; HT1080 RFP-PRO-GFP cells, GFP/RFP ratio fluorescence, overnight; percent of plate control window, DMSO zero; GFP/RFP ratio change, % at 20 µM; P50281; 360,000 tested, 0.061% active;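 active = GFP/RFP ratio change of at least 30% with cell ATP level not reduced by more than half and red fluorescence within 50% of control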; note: strong numbers were not always called active
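Read-out: GFP/RFP fluorescence ratio; Test system: RFP-PRO-GFP reporter HT1080 cells; Compound dosing: single-point 20 µM compound, 1% DMSO; Times: overnight compound exposure at 37 °C.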
PABP polyA inh = PABP-poly(A) binding inhibition. inhibition, % at 35 µM. 290,000 tested, 1% active. PABP-poly(A) RNA binding, fluorescence polarization. P11940;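 active = 50% or more with normal probe brightness, or confirmed in later tests; inconclusive = above 50% with abnormal brightness, or retests that disagree; inactive = below 50% or failed in later tests; about a fifth of its hits are not listed in these tables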;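 note: calls also rest on retests at 20 µM and on dose response follow-up; controls were probe without protein and protein plus probe with vehicle; some compounds called inactive have numbers as strong as hits; many hits fall short of the cut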
Target sequence (P11940 whole entry, looked up): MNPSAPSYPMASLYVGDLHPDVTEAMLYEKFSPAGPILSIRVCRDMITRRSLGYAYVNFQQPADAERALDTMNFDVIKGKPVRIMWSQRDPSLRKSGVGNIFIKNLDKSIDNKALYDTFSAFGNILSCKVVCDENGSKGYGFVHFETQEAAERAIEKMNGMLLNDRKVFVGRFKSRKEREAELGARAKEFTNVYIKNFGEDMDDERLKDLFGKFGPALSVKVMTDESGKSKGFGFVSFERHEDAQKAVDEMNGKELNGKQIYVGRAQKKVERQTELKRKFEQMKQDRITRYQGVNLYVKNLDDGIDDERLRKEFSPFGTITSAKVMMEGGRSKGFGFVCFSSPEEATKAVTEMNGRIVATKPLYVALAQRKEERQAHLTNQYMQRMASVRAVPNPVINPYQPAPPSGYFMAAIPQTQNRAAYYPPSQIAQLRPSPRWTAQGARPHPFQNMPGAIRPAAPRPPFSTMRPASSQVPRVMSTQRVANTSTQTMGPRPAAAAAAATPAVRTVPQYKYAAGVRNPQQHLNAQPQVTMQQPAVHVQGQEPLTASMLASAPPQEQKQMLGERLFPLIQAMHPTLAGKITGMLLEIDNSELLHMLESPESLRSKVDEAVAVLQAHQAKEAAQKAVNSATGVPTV
HIV Env fusion = blocks HIV Env-driven cell-cell fusion; HeLa-JRFL Env/CEM21 cell fusion, luciferase; inhibition, % at 12.3 µM; 360,000 tested, 1.1% active; AID 651610;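 active = mean replicate inhibition score of at least 50 and every replicate individually at or above 50; inconclusive = only one of the two criteria met; inactive = mean below 50 and not all replicates reaching 50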;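 note: 0% = plate neutral controls and 100% = maraviroc near 300 nM; one replicate is shown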
eIF4H FP inh = inhibitors of RNA binding by human eIF4H; Q15056; eIF4H fluorescence polarization binding assay; inhibition, % at 35 µM; 290,000 tested, 0.94% active; AID 2012;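 active = 50% or more with normal probe brightness, or confirmed in later tests; inconclusive = above 50% with abnormal brightness, or retests that disagree; inactive = below 50% or failed in later tests; about a fifth of its hits are not listed in these tables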;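 note: calls also rest on retests at 20 µM and on dose response follow-up; 0% = protein and probe with vehicle and 100% = probe without protein; strong numbers were not always called active; many hits fall short of the cut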
CSC inhib = cancer stem cell inhibition; inhibition, % at 7.5 µM; 300,000 tested, 1.1% active; cancer stem cell-like cells viability, luminescence;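 active = mean at 75% or more and at least half the replicates too; inconclusive = mean and replicates disagree; tested in HMLE shEcad cells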;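 note: 0% = median of negative and 100% = median of positive control wells; the first replicate is given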
Yeast UUG start = yeast start codon fidelity modulation. S. cerevisiae UUG-firefly luciferase reporter, luminescence/redox ratio. 350,000 tested, 0.13% active. activity score, % at 18.7 µM. AID 602363;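 active = replicate mean at a twofold rise or more, about +100% in these data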;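 note: firefly luciferase made from a UUG start codon reports start codon fidelity; reporter light over untreated wells divided by growth signal over untreated wells; some hits fall short of that in this replicate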
Rce1 inh = blocks yeast Ras-converting enzyme. Q03530. yeast membranes, quenched prenylated peptide cleavage fluorescence. calls only. 290,000 tested, 0.27% active. AID 2563;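 active = fall in fluorescence gain of 50% or more versus controls, with final raw signal at or below 3038400; inconclusive = same 50% fall but final raw signal above 3038400; inactive = fall in fluorescence gain under 50%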;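 note: plate controls were neutral control wells for no effect and wells lacking membranes for full effect; tested at 10 µM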
Target sequence (Q03530 whole entry, looked up): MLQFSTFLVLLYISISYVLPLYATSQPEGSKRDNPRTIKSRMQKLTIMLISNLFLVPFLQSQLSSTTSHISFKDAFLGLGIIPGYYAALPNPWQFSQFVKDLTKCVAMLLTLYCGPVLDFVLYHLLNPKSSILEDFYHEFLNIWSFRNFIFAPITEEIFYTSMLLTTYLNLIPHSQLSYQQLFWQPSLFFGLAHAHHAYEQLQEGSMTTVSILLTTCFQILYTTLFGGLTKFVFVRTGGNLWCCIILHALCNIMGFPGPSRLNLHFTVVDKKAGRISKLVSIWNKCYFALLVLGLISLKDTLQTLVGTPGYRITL
eIF4H FP inh retest = second read-out of eIF4H FP inh, no call of its own (marks repeat the call); inhibition, %; compound at 20 µM; confirmation average;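 mean of two retest wells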
PABP polyA inh retest = recorded beside PABP polyA inh, whose call it bears; inhibition, %; compound at 20 µM; confirmation repeats;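 mean of two retest wells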
MT1-MMP act inh RFP = further read-out of MT1-MMP act inh, marked with its call; RFP signal change, %; measured here: RFP expression control read;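 0 = vehicle wells; hits needed this value within 50% of zero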
* marks the source's active call; other numbers are inactive results; i = inactive; ? = inconclusive; . = not tested or not shown; & = joins results of further samples. Compounds were not picked by outcome; about 2.9% have a hit in one of these screens.

SMILES	MT1-MMP act inh	MT1-MMP act inh RFP	PABP polyA inh	HIV Env fusion	eIF4H FP inh	CSC inhib	Yeast UUG start	Rce1 inh	others
Cc1ccc(NC(=S)NC(=O)Cc2ccccc2)c(O)c1	0	0	4	-13	0	1	-31	i
O=C(COC(=O)c1ccccc1-c1nc2ccccc2s1)NC1CCS(=O)(=O)C1 (stereo unspecified)	1	1	2	-24	-4	7	-1	i
COc1ccc(NCc2n[nH]nc2-c2ccccc2)cc1Cl	-1	-4	2	.	4	17	-19	i
CCCN(CCC)CCCNC(=S)Nc1ccc2nc3n(c(=O)c2c1)CCCCC3	-7	-6	-6	25	-1	10	.	i
Cc1cc(=O)n2[nH]cc(-c3ccccc3)c2n1	4	4	-7	-23	34	-6	-10	i
Cc1ccc(NC(=O)N2CCCC2C(=O)NCc2ccc3c(c2)OCO3)cc1 (stereo unspecified)	0	0	13	6	-1	-2	-12	i
Cc1cccn2c(=O)c3cc(C(=O)NC4CCCCC4)sc3nc12	3	1	11	8	15	-3	-19	.
O=c1cc(-c2ccccc2)ss1	-4	2	.	-94	.	.	-5	.
NC(N)=NS(=O)(=O)c1ccc(NC(=S)NC(=O)c2ccccc2)cc1	3	2	0	1	-11	-6	-28	i
Nc1nc(NCCOCCO)nc(NCc2ccccc2)c1[N+](=O)[O-]	-3	1	5	-2	10	-4	-11	i
CC(C)COc1ccc(Br)cc1CNC(C)(C)C	-1	-4	2	14	-8	14	.	i
CNS(=O)(=O)c1cccc(C(=O)OCC(=O)c2ccc3[nH]c(=O)[nH]c3c2)c1	-4	2	.	-22	.	-7	-12	.
O=[N+]([O-])c1ccc(Oc2cccc(Br)c2)c2ccncc12	-10	-10	-6	.	1	22	.	i
CCOC(=O)N1CCN(C(=O)c2ccccc2NS(=O)(=O)c2ccc(C)cc2)CC1	-2	2	2	-19	1	10	-13	i
COc1cc(C2c3c(oc4ccccc4c3=O)C(=O)N2Cc2ccncc2)ccc1O (stereo unspecified)	3	2	1	2	-6	-8	-20	i
O=C(OCC(=O)N1CCc2ccccc21)c1ccc(Cl)nc1	2	2	4	-2	-6	.	-7	i
CC12CC3CC(C)(C1)CC(CN1CCOCC1)(C3)C2	13	2	3	.	7	-11	-2	i
Cc1cc(C(=O)COc2cccc(-n3cnnn3)c2)c(C)n1-c1ccccc1	9	-10	-3	-41	-5	18	-17	i
CN(Cc1ccccc1)C(=O)COC(=O)CN1C(=O)c2ccccc2C1=O	-2	4	.	5	.	9	-18	.
CC(=O)Nc1ccc(NC(=O)CSc2nc(=O)n(Cc3ccncc3)c3c2CCC3)cc1	3	-1	.	14	.	-4	-9	i
c1ccc(C2=Nc3ccccc3SC2c2nc3ccccc3[nH]2)cc1 (stereo unspecified)	.	.	1	.	-3	22	.	i
COC(=O)CCCC(=O)Nc1c(F)c(F)c(F)c(F)c1F	3	4	3	-66	-4	-12	-15	i
O=C1C2CC=CCC2C(=O)N1CC(=O)N(Cc1ccccc1)C1CCS(=O)(=O)C1 (stereo unspecified)	0	5	69	5	4	1	-1	i	eIF4H FP inh retest=-3;PABP polyA inh retest=10
CC(C)C(=O)Nc1ccc(NC(=O)c2ccccc2Cl)nc1	4	4	-3	.	8	-5	-11	i
CCN(CC)CCOC(=O)c1ccc(Cl)cc1	-10	-4	-9	-59	-15	-8	-15	i
Additional compounds follow:
SMILES	MT1-MMP act inh	MT1-MMP act inh RFP	PABP polyA inh	HIV Env fusion	eIF4H FP inh	CSC inhib	Yeast UUG start	Rce1 inh	others
O=C(CSC(=S)N1CCSCC1)c1ccc(Cl)cc1	-3	-1	14	-125	49	-12	.	i
c1cncc(-c2nc3c(ccc4ccccc43)[nH]2)c1	-5	-2	-4	.	7	10	-5	i
CCOC(=O)Cc1nnc(NC(=O)C(CC)Sc2nnc3c4ccccc4n(C)c3n2)s1 (stereo unspecified)	3	5	15	.	6	-7	-13	i
CCCNC(=O)COc1ncnc2sc(C)c(C)c12	13	7	2	.	-4	-11	-19	i
Cc1csc(NC(C)c2nc3cc(C(F)(F)F)ccc3n2CCCO)n1 (stereo unspecified)	2	1	.	4	.	-14	-13	i
O=C(O)Cn1cc(C(=O)c2cccs2)c2ccccc21	23	1	1	-2	0	21	8	i
COc1ccc(CN2CCCC(C(=O)c3ccc(Cl)cc3)C2)cc1Cn1cccn1 (stereo unspecified)	-1	-4	-7	-2	-1	8	-20	i
NC(=O)C1CCN(C(=S)c2cccs2)CC1	0	4	0	6	0	-8	-3	i
CC(C)N1CCCC(C)(C(=O)Nc2cccc(Oc3ccccc3)c2)C1 (stereo unspecified)	5	4	.	18	.	.	-12	.
CCOc1ccc(S(=O)(=O)NCCC(=O)NC2=NCCS2)cc1	3	-4	1	.	-2	-9	-1	i
CN(CC(=O)Nc1ccc(Cl)cc1)C(=O)CN1C(=O)C2CCCCC2C1=O (stereo unspecified)	2	0	.	-1	.	.	-16	.
N#CCCCn1c(O)c(N=NC(=O)C(O)c2ccccc2)c2ccccc21 (stereo unspecified)	2	10	-6	10	-2	-2	-7	i
O=C(NC1CCCCCC1)c1ccc(-n2cnnc2)cc1	0	2	-6	-4	-3	-1	-6	i
O=C(N/N=C\c1ccc(OCC(=O)N2CCCC2)cc1)C(=O)Nc1ccccc1F	1	4	-6	.	3	-2	-11	i
Cn1c(CO)cnc1SCc1ccccc1	4	0	3	.	-5	20	-11	i
Cc1cccc(CSC(Nc2ccc(F)cc2)=C(C#N)C#N)c1	-11	-29	-7	19	-2	-26	.	i
CC(C)(C)c1cc(C(=O)Nc2cccc3ccccc23)ccn1	5	-2	6	3	5	-16	-14	i
C=C(C)CN=C1NN=C(c2cc(C)n(-c3ccc(C)cc3)c2C)CS1	-3	-3	0	.	11	-23	.	i
CCCOc1ccc(C(=O)O)cc1	-1	2	10	7	0	-6	-6	i
COCCNc1nc(NCCOC)c2sc(-c3ccccc3)cc2n1	2	-3	.	-15	.	.	-8	.
NCCCCCc1cn(CC(=O)NCCCCCCCCCCC(=O)N2CCNCC2)nn1	-1	3	.	-1	.	-5	-3	.
O=C(NCC1CCCO1)c1ccc(NC(=O)C2C3C=CC(C3)C2C(=O)O)cc1 (stereo unspecified)	3	0	-19	-54	-11	-5	-11	i
Cc1cc(NC(=O)CSc2nc3c(C)c(C)ccc3cc2C)no1	-5	0	9	10	-19	-13	-22	i
O=c1[nH]c(-c2ccccn2)nc(C(F)(F)F)c1Br	3	-7	-2	36	4	20	.	i
COC(=O)C1=CC(C(=O)c2cccs2)=NN(c2ccc(OC)cc2)C1C(=O)OC (stereo unspecified)	5	3	1	34	?	-9	.	i
The list goes on:
SMILES	MT1-MMP act inh	MT1-MMP act inh RFP	PABP polyA inh	HIV Env fusion	eIF4H FP inh	CSC inhib	Yeast UUG start	Rce1 inh	others
C[C@H]1CN(S(=O)(=O)C(C)(C)C)[C@H](CCO)/C1=C\c1ccccc1	4	4	.	3	.	.	-11	.
O=C(CNC(=O)c1ccc(Cl)cc1)c1ccc(Cl)cc1	2	2	-8	-12	-2	-14	-5	i
O=C(Cn1cnc2c(cnn2-c2ccccc2)c1=O)N1CCCc2ccccc21	2	-4	-2	12	-4	-15	5	i
CCc1ccc(OCC(=O)N(Cc2cccs2)C2CCS(=O)(=O)C2)cc1 (stereo unspecified)	0	-1	-6	-94	-13	.	2	i
Cc1nc2c(OCCN3C(=O)c4ccccc4C3=O)cccn2c1N(C)C(=O)CCC1CCCC1	1	3	.	-1	.	.	-4	.
CCOC(=O)c1cc2cc(OC)ccc2nc1C	0	-1	4	.	2	-13	-23	i
NC(=S)NN=C1Cc2cccc3cccc1c23	6	3	.	-185	.	.	-18	.
COc1ccc(NC(=O)C2CCCN(S(=O)(=O)c3c(C)[nH]c(=O)[nH]c3=O)C2)cc1OC (stereo unspecified)	2	2	4	-1	-2	-9	.	i
Cc1nn(Cc2ccc(Cl)c(Cl)c2)c(C)c1NC(=O)c1sc2ccccc2c1Cl	-4	-22	4	12	8	-14	-8	i
Cn1c(CO)cnc1SCC(=O)c1ccc(Cl)cc1	0	2	17	9	25	-8	.	i
CCN1CCN(Cc2ccc(NC(=O)CC3Oc4ccc(C)cc4NC3=O)cc2)CC1 (stereo unspecified)	4	0	3	9	-4	34	-22	i
Cc1ccc(-c2csc(NC(=O)CN3CCOCC3)n2)cc1	-4	-7	-6	-13	10	23	-6	i
CC(C)NC(=O)CCn1nc(-c2ccc(Cl)cc2)c2ccccc2c1=O	-6	-5	-1	6	-6	5	4	i
O=C(Nc1ccc2nc3n(c(=O)c2c1)CCCC3)c1cc([N+](=O)[O-])ccc1F	-25	-24	0	.	-1	-2	2	i
O=C(Nc1cccc(Cl)c1)Nc1cccc(Cl)c1	1	-6	5	52*	-8	-11	-23	.
O=c1c2c(nc3cc(-c4ccc(F)cc4)[nH]n13)CCC2	6	5	4	-96	-1	-5	.	i
C=CCc1c(C)nc(-c2ccccc2)nc1N/N=C(\C)c1ccc(N)cc1	-2	1	5	-113	-7	17	-13	i
COc1cc(Nc2cccc[n+]2C)cc(OC)c1OC	-5	2	22	-16	-1	-14	-7	i
O=C(O)C=C1CCN(c2ncc(C(F)(F)F)cc2Cl)CC1	2	3	1	-33	3	-6	-2	.
CN(C)c1ccc(N=Nc2ccc(S(=O)(=O)O)cc2)c2ccccc12	18	4	-2	-16	-2	-8	19	.
CN(CC(=O)NCCc1ccccc1)S(=O)(=O)c1cnc[nH]1	2	4	-9	-62	-4	-9	-1	i
COc1ccc(OC)c(N(CC(=O)Nc2cccc3ccccc23)S(C)(=O)=O)c1	-3	2	.	-10	.	2	.	i
Cc1ccccc1OCCC(=O)OCC(=O)N1c2ccccc2NC(=O)C1(C)C	-5	0	.	6	.	-6	-19	i
C=CCOc1c(Cl)cc(C(=S)N2CCCC2)cc1OCC	-3	-13	-3	-37	-6	68	-25	i
O=C(Nc1ccc(Oc2cccc(C(F)(F)F)c2)nc1)c1cccs1	-4	-29	6	20	1	13	-4	i
Carrying on.
SMILES	MT1-MMP act inh	MT1-MMP act inh RFP	PABP polyA inh	HIV Env fusion	eIF4H FP inh	CSC inhib	Yeast UUG start	Rce1 inh	others
CCOC(=O)c1ccc(N/C(=N\S(=O)(=O)c2ccccc2C)c2ccccc2)cc1	0	-2	-8	.	2	-10	-9	i
Cc1ccc(S(=O)(=O)Nc2ccc3c(c2)C(=O)N([C@H](C)CO)C[C@H](C)[C@@H](CN(C)Cc2ccccc2)O3)cc1	-1	2	.	9	.	-11	4&0	.
C/C(=N\O)c1cc(Cl)cc(Cl)c1O	-5	3	6	-34	-12	0	.	i
Cc1cccc(C)c1NC(=O)C(NC(=O)c1ccccn1)c1ccc([N+](=O)[O-])cc1 (stereo unspecified)	9	1	2	21	0	-9	-16	i
Nn1cnc2c(c1=O)C1(CCCCC1)Cc1ccccc1-2	-10	-6	11	32	-2	-1	.	i
COc1ccc(-c2nc(CCl)cs2)cc1OC	-2	-3	-8	-13	-1	4	13	i

Arranged by length of the SMILES (rising): part of the list above
SMILES	MT1-MMP act inh	MT1-MMP act inh RFP	PABP polyA inh	HIV Env fusion	eIF4H FP inh	CSC inhib	Yeast UUG start	Rce1 inh	others
C/C(=N\O)c1cc(Cl)cc(Cl)c1O	-5	3	6	-34	-12	0	.	i
COc1ccc(-c2nc(CCl)cs2)cc1OC	-2	-3	-8	-13	-1	4	13	i
O=C(Nc1ccc(Oc2cccc(C(F)(F)F)c2)nc1)c1cccs1	-4	-29	6	20	1	13	-4	i
CCOC(=O)c1ccc(N/C(=N\S(=O)(=O)c2ccccc2C)c2ccccc2)cc1	0	-2	-8	.	2	-10	-9	i
